Screens from PubChem BioAssay.
VDR inh – blocks the human vitamin D receptor; P11473; 400,000 compounds, 0.93% hits; VDR-SRC2-3 peptide fluorescence polarization, 2 h; AID 504847; Potency, µM, for the others: max response, negative = inhibition, hits mostly inhibitors; active means well fitted inhibition curve with a large enough effect; inconclusive means small, poorly fitted or top-dose-only effect, or another doubt; inactive means no such curve, though single readings can be large or run the other way; further: series mostly up to about 120 µM
Target sequence (P11473 whole entry, looked up): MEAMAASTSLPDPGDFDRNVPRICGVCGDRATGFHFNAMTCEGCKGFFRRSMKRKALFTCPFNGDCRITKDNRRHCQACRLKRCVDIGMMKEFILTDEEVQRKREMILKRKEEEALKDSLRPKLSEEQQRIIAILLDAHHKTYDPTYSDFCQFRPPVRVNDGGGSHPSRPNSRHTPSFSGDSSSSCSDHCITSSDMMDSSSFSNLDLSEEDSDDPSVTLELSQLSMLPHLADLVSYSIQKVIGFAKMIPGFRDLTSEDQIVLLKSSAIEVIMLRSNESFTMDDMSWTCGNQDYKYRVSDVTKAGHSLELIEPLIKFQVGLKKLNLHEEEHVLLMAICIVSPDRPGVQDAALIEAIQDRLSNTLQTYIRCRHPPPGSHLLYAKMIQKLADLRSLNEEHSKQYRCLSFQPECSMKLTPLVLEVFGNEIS
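After 23 nl compound addition and a short centrifugation, plates sat for 2 hours at ambient temperature; polarization of fluorescence then indicated loss of VDR binding to peptide SRC2-3.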
Active calls of the source: *; ? = inconclusive; & = joins results of further samples. On the % scale 0 is the no-effect control and ±100 the full control effect; potency means the concentration at half of the fitted maximal effect. Not all compounds are listed; count on the stated rates, not on these rows.

SMILES	VDR inh
CCOc1ccc(C(=O)CCC(=O)N(CC)CC(=O)Nc2c(F)cccc2F)cc1	-4%
CC1CCN(C(=O)CC2C(=O)Nc3c2c(=O)n(C)c(=O)n3Cc2ccccc2)CC1 (configuration not stated)	9%
Cc1cc(Br)c(NC(=O)CN2CCCC2)c(Br)c1	3%
CCN1C(=O)CC(NNC(=O)c2ccccc2)C1=O (configuration not stated)	6%
Nc1c(C(=O)NCCc2ccccc2)sc2nc(N3CCOCC3)c3c(c12)CCCC3	-7%
COc1ccc(O)c(C(=O)c2cnc3onc(C(C)C)c3c2)c1	8%
COc1cccc(C(=O)NC2CCN(CC(=O)NCc3ccccc3F)CC2)c1	10%
COc1cccc2c1cc1c(=O)n(CC(=O)NCc3ccc(N(C)C)cc3)nc(C)n12	-29%
CCCCCCOC(=O)C(C#N)c1nc2ccccc2nc1N1CCOCC1 (configuration not stated)	5%
NC(=O)CSc1oc(-c2cccs2)nc1S(=O)(=O)c1ccc(Br)cc1	16%
Cc1cccc(-c2nc3ccccc3n2Cc2ccccc2)c1	10%
C[C@@H]1Cc2ccccc2N1NC(=O)c1ccc(Cl)c(S(N)=O)c1 (some centres not stated)	3%
O=[N+]([O-])c1cccnc1NCCc1ccccc1	-1%
CSCCC(NC(=O)c1ccccc1Cl)C(=O)N1CCC1 (configuration not stated)	-14%
Cc1ccn2c(Nc3ccccc3C)c(-c3ccc(N4CCOCC4)cc3)nc2c1	-11%
CC(C)C(NC(=O)c1ccc(C(C)(C)C)cc1)C(=O)O (configuration not stated)	10%
O=C(NC1CCCCC1)C1(S(=O)(=O)c2ccc(Cl)cc2)CC1	0%
COC(=O)c1c(NC(=O)C(C)(C)C)csc1C	2%
CN(CC(=O)Nc1ccc(Cl)cc1)S(=O)(=O)c1cccc2cccnc12	-6%
Cc1nnc(SCC(=O)NC2CCCc3ccccc32)n1-c1ccccc1 (configuration not stated)	0%
CC(=O)c1ccc(N2CCN(C(=O)Cc3ccccc3)CC2)c(F)c1	9%
COc1ccc(NS(=O)(=O)c2cc(NC(=O)c3nn(C)c(=O)c4ccccc34)ccc2OC)cc1	-20%
Cc1ccc2c(CC(=O)NCc3ccccc3)coc2c1C	17%
Cc1ccc(S(=O)(=O)N2[C@@H](c3ccc(Cl)cc3)C(C(=O)O)=CC[C@H]2c2cccc(Cl)c2)cc1	-17%
CCN(CC(=O)NCc1cccs1)C(=O)COc1ccccc1C#N	-14%
COC(=O)[C@@H]1C(c2c(OC)cc(OC)cc2OC)=NO[C@H]1C(=O)OC	3%
CC12CCC(=O)N1C(C(=O)N1CCN(c3ccc([N+](=O)[O-])cc3)CC1)CS2 (configuration not stated)	6%
C/C(Cc1ccccc1)=N\NC(=O)CNC(=O)c1ccccc1Cl	6%
COc1ccc(CCn2c(C)cc(C(=O)CCl)c2C)cc1OC	-16%
Cc1ccc(S(=O)(=O)N2CCCCC2)cc1NC(=O)Cc1c[nH]c2ccccc12	-8%
COc1ccc(C(=O)COC(=O)c2ccc(Cl)nc2)cc1OC	6%
Cc1cc(C=O)c(C)n1-c1ccc(N2CCOCC2)c([N+](=O)[O-])c1	-13%
COc1ccc(CCCNC(=O)CC#N)cc1OC	0%
CCOCC(=O)Nc1c(C(=O)N2CCN(c3ncccn3)CC2)oc2ccccc12	-11%
COc1cc(/C=N/NC(=O)c2cc(C)oc2C)ccc1OCc1ccccc1	12%
C=CCn1c(N)c(C(=O)N2CCOCC2)sc1=S	-6%
CCCc1cc(=O)c2ccc(OCC(C)=O)cc2o1	-14%
O=C(/C=C/c1cccc(F)c1)OCC(=O)N1CCc2ccccc21	5%
O=c1[nH]c2ccc(NS(=O)(=O)c3ccc(F)c(Cl)c3)cc2[nH]1	-18%
COc1ccccc1CCc1nnc(CCC(=O)N(C)Cc2ccncc2C)o1	-17%
CSc1ncc(C(=O)NCc2ccccc2Cl)c(C(F)(F)F)n1	2%
COc1ccccc1N1CCN(Cc2cc(=O)c(OCC(=O)Nc3ccccc3)co2)CC1	-4%
COc1ccc(-c2ccc(C#N)c(SCC(=O)Nc3sc4c(c3C#N)CCC4)n2)cc1OC	5%
CC(=O)N1CCC2(CC1)CN(c1ccccc1)C2	-1%
COc1c(Br)cc(Br)cc1C(=O)O	-16%
COc1ccc(NC(=O)c2cc(-c3ccccc3)nc3c2cnn3C(C)C)c(OC)c1	7%
C/C(=C\C(=O)O)CC(=O)O	4%
Cc1ccc(NC(=O)c2cc(-c3ccco3)nc3ccccc23)cc1S(=O)(=O)N1CCOCC1	7%
Cc1ccc(NC(=O)Cn2cnc3c(oc4ccccc43)c2=O)cc1Cl	-2%
Cc1ccc(S(=O)(=O)N(C)C[C@@H]2Oc3ccc(NC(=O)CCC(F)(F)F)cc3CC(=O)N([C@@H](C)CO)C[C@@H]2C)cc1	-22%
Cc1cc(N2CCN(C)CC2)nc2ccc(NC(=S)N3CCOCC3)cc12	5%
COC(=O)c1ccc(C2C(C(=O)Nc3ccc(C)cc3C)=C(C)Nc3ncnn32)cc1 (configuration not stated)	-3%
CCOC(=O)c1c(C)oc2ccc(N(C(=O)c3ccncc3)S(=O)(=O)c3ccc(CC)cc3)cc12	?
COc1ccc(OC)c(NC(=O)Cn2c(=O)oc3ccccc32)c1	1%
CS(=O)(=O)N1CCC(C(=O)Nc2ccccc2Cl)CC1	-11%
CCc1ccc(N(C(=O)c2snc(C(N)=O)c2N)C(C(=O)NCCC(C)C)c2c[nH]c3ccccc23)cc1 (configuration not stated)	-9%
O=C(CSc1nc2ccc(Cl)cc2[nH]1)NC1CCCC1	0%
CCOc1ccc(NC(=O)NC2CCOC(C)(C)C2)cc1 (configuration not stated)	11%
COCCNC(=O)C(c1ccc(F)cc1)N(CCOC)C(=O)CCC(=O)Nc1nccs1 (configuration not stated)	13%
COc1cccc(OC)c1C(=O)Nc1cccc(-c2nc3ccccc3[nH]2)c1	11%

Carrying on:
SMILES	VDR inh
COc1ccc(CCNC(=O)c2cc(-c3ccccc3OC)on2)cc1OC	5%
CN(c1ccccc1C(=O)NC1CC2CCC1C2)S(=O)(=O)c1ccccc1 (configuration not stated)	3%
Cn1c(CN2CCN(C(=O)c3ccccc3Cl)CC2)nc2cc([N+](=O)[O-])ccc21	2%
O=C(CSc1nc2c(c(=O)n1-c1ccc(Cl)cc1)SCC2)N1CCCC1	-7%
Cc1ccc(NC(=O)CCN2CCC(Cc3ccccc3)CC2)cc1	2%
CC1=C/C(=N\NC(=S)NCc2ccccc2)CC1	-20%
COc1ccc(-c2nc(CSCC(=O)NCCC(C)C)c(C)o2)cc1OC	-16%
Cc1oc2ccc(O)c(CN3CCN(C)CC3)c2c1C(=O)Nc1cccc(C(F)(F)F)c1	7%
CCCCNC(=O)CSc1c2c(nc3ccc(Cl)cc13)CCCC2	-18%
Nc1c(C(=O)OCC(=O)Nc2ccccc2Br)[nH]c(=O)[nH]c1=O	-3%
COC(=O)c1c(NC(=O)CS(=O)(=O)c2ccc(C)cc2)sc2c1CCCC2	18%
CC(/C=N/NC(=O)Cc1cccn1C)=C\c1ccco1	12%
Cc1c(CN2CCCC(C(=O)Nc3cccc(-n4cccn4)c3)C2)cnn1C (configuration not stated)	-14%
COC(=O)Cc1c(C)c2ccc(OCC(C)=O)c(C)c2oc1=O	7%
CCO[C@H]1OC(C(=O)NCc2nc3ccccc3[nH]2)=C[C@@H](c2csc3ccccc23)[C@@H]1CCCO	-15%
CC(=O)OCCOc1nc(N(C)C)nc(N(C)C)n1	-9%
CCOC(=O)N1CCN(C(=O)c2ccc3c(SCC(=O)O)c4c(nc3c2)CCCC4)CC1	-20%
Cc1cc(Oc2ccc(=O)[nH]n2)nc(Cl)n1	5%
NC(=S)N/N=C/c1ccc(-c2cc(Cl)ccc2Cl)o1	-20%
Cc1c(Cc2ccc3c(c2)OCO3)sc(NC(=O)c2ccccc2)c1C(N)=O	-4%

Part of the list above in order of SMILES length, ascending.
SMILES	VDR inh
NC(=S)N/N=C/c1ccc(-c2cc(Cl)ccc2Cl)o1	-20%
CCCCNC(=O)CSc1c2c(nc3ccc(Cl)cc13)CCCC2	-18%
COc1ccc(-c2nc(CSCC(=O)NCCC(C)C)c(C)o2)cc1OC	-16%
CN(c1ccccc1C(=O)NC1CC2CCC1C2)S(=O)(=O)c1ccccc1 (configuration not stated)	3%
COC(=O)c1c(NC(=O)CS(=O)(=O)c2ccc(C)cc2)sc2c1CCCC2	18%
Cc1oc2ccc(O)c(CN3CCN(C)CC3)c2c1C(=O)Nc1cccc(C(F)(F)F)c1	7%

New compounds follow
SMILES	VDR inh
O=C1CCC(=O)N1c1ccccc1OS(=O)(=O)c1ccccc1	0%
C/C(=N/NC(=O)c1cccc(N2CCCC2=O)c1)c1ccc(Br)cc1	19%
CCCOc1ccc(C2C(C(=O)c3ccc(C)o3)=C(O)C(=O)N2CCCn2ccnc2)cc1 (configuration not stated)	-5%
N#C/C(=C(/O)COC(=O)CCC1CCCCC1)c1nc2ccccc2[nH]1	23%
COCC(=O)Oc1c(S(=O)(=O)c2ccc(C)cc2)c(C)nn1C(C)(C)C	-1%
O=C(COC(=O)c1ccc2[nH]c3c(c2c1)CCCC3)Nc1ccccc1Cl	-12%
COC(=O)c1[nH]c2ccc(F)cc2c1NC(=O)C1=COCCO1	16%
COc1ccc(-c2cc(OC)c3c(C)oc(C)c3c(=O)c2)cc1OC	-5%
O=C(CN1C(=O)c2ccccc2S1(=O)=O)Nc1ccon1	0%
O=C(Cn1nnc(-c2ccccc2)n1)NCc1ccccc1	18%
COc1ccc(OC)c(NC(=O)C2CC(=O)N(CCc3ccc(F)cc3)C2)c1 (configuration not stated)	-11%
OC(CCN1CCCC1)(c1ccccc1)C1CCCCC1 (configuration not stated)	0%&-2%
CCOc1ccccc1N1CCN(c2nc(N)c(C#N)c(CC#N)c2C#N)CC1	6%
COc1ccc(Nc2nnc(-c3ccccc3)c3ccccc23)cc1C(=O)N1CCCCC1	-14%
CN1C(C(=O)NCc2ccc(OC(F)(F)F)cc2)CC2Cn3c(nc4ccccc43)C21 (configuration not stated)	-13%
COc1ccccc1-c1nc2cc(Cl)ccc2c(=O)n1O	-1%
CCN(C(=O)CSc1nnc(-c2ccc(C)cc2)n1N)c1c(N)n(Cc2ccccc2)c(=O)[nH]c1=O	-3%
Cn1c(NC(=O)c2ccc(S(=O)(=O)N3CCOCC3)cc2)cc(=O)n(C)c1=O	-4%
CC(=O)c1c(C)nc(C)nc1NC(=O)C(C)C	0%
O=C(O)COc1ccccc1/C=N/Nc1ccc(S(=O)(=O)N2CCOCC2)cc1[N+](=O)[O-]	-14%

Part of the list above, set out differently:
> CCOc1ccccc1N1CCN(c2nc(N)c(C#N)c(CC#N)c2C#N)CC1
  VDR inh: 6%

> COc1ccc(Nc2nnc(-c3ccccc3)c3ccccc23)cc1C(=O)N1CCCCC1
  VDR inh: -14%

Next section:
SMILES	VDR inh
N/C(=N\OC(=O)c1ccccc1Cl)c1cccnc1	10%
Cc1ccc(NC(=O)CSc2nc3ccc(NC(=O)CCc4ccccc4)cc3s2)cc1	18%
Cc1cc(OC(=O)c2cc(Br)ccc2Cl)c([N+](=O)[O-])c(=O)[nH]1	0%
COc1ccc(NC(=O)c2ccc3[nH]c(C)cc(=O)c3c2)cc1	3%
CCN(CC)CCCNC(=O)CNC(=O)c1nn(-c2ccc(OC)c(OC)c2)c(=O)c2ccccc12	-3%
CCOc1ccc(-c2cc(C(=O)O)c3ccccc3n2)c(OCC)c1	-19%
Nc1ccc(C(=O)OCC(=O)NC2CCCc3ccccc32)cc1[N+](=O)[O-] (configuration not stated)	2%
COc1ccc(S(=O)(=O)NCC(c2cccnc2)N2CCN(c3ccc(F)cc3)CC2)cc1C (configuration not stated)	-11%
CC(=O)Nc1ccc(NC(=O)C(C)N(C)CC(=O)Nc2ccccc2Br)cc1 (configuration not stated)	17%
COCCSc1nnc(NC(=O)Cc2ccccc2OC)s1	-14%
CCOC(=O)C1(C)NC(c2ccco2)C2C(=O)N(CC)C(=O)C21 (configuration not stated)	-2%
O=C(Nc1cccc(Br)c1)N1CCC(CN2CCCCCC2)CC1	3%
Cc1ccc(-c2cc(C(=O)N3CCCCC3)c3ccccc3n2)cc1C	-9%
COC(=O)c1c(NC(=O)CN2CCN(C(=O)c3ccco3)CC2)c2cc(C)ccc2n1C	-8%
CC(=O)c1cc2c(cc1NS(=O)(=O)c1ccccc1)OCO2	13%
CC(=O)NS(=O)(=O)c1ccc(NS(=O)(=O)c2ccc3ccccc3c2)cc1	9%
O=C1CC2(CCN(C(=O)c3ccccc3F)CC2)Oc2ccccc21	10%
CSCC(C)N1CCC(n2nccc2NC(=O)CCOc2ccccc2)CC1 (configuration not stated)	-9%
CNc1nc(SC)nc2ccccc12	-10%
COc1ccccc1-c1cncnc1Nc1ccccc1	28µM*

Arranged by value in VDR inh (high to low): five from the list above
SMILES	VDR inh
O=C(NC1CCCCC1)C1(S(=O)(=O)c2ccc(Cl)cc2)CC1	0%
COC(=O)c1ccc(C2C(C(=O)Nc3ccc(C)cc3C)=C(C)Nc3ncnn32)cc1 (configuration not stated)	-3%
Cc1ccc(-c2cc(C(=O)N3CCCCC3)c3ccccc3n2)cc1C	-9%
O=C(COC(=O)c1ccc2[nH]c3c(c2c1)CCCC3)Nc1ccccc1Cl	-12%
CN1C(C(=O)NCc2ccc(OC(F)(F)F)cc2)CC2Cn3c(nc4ccccc43)C21 (configuration not stated)	-13%

Next part.
SMILES	VDR inh
O=C(COC(=O)c1cccc(Oc2ccccc2)c1)NCc1ccco1	6%
C[C@]1(OC(=O)/C=C/c2ccccc2)C[C@@H](O)[C@]2(O)C=CO[C@@H](O[C@@H]3O[C@H](CO)[C@@H](O)[C@H](O)[C@H]3O)[C@@H]21	2%
CN(CC(=O)NCc1ccc(F)cc1)S(=O)(=O)c1ccc2c(c1)n(C)c(=O)c(=O)n2C	8%
O=C(CCC(=O)c1cccs1)NCc1cccnc1	-8%
CC(C)[C@H](NC(=O)[C@@H]1CSC2c3ccccc3C(=O)N21)C(=O)NC1CCCCC1 (some centres not stated)	-7%
Cc1ccc(Nc2nnc(SCC(=O)Nc3ncc(C(F)(F)F)cc3Cl)s2)cc1	-20%
CCOc1cccc(C(=O)NC(=S)NCc2cccnc2)c1	-5%
CCc1ccc(-c2cn3nc(CC)sc3n2)cc1	6%
